# 2A firefly = lowers the firefly signal of an FMDV 2A StopGo reporter. HEK cells with a luciferase reporter of 2A StopGo recoding. 120,000 compounds, 0.23% hits. Potency, µM (doses to about 57.5 µM), for the others: top-dose signal change, negative = less light. AID 1745856; active = well fitted falling curve with a large enough effect; inconclusive = small, poorly fitted or top-dose-only effect; inactive = no such curve, though single readings can be large or run the other way; also: nearly all actives have a fitted effect of over 60% in size; overnight with compound
# 2A Renilla = FMDV 2A StopGo reporter, Renilla signal; HEK cells with a luciferase reporter of 2A StopGo recoding; Potency, µM (titrated, usually from 57.5 µM), for the others: at the top dose signal change, negative = less light; 120,000 compounds, 0.32% hits; active means well fitted falling curve with a large enough effect; inconclusive means small, poorly fitted or top-dose-only effect; inactive means no such curve, though single readings can be large or run the other way; also: nearly all actives have a fitted effect of over 55% in size; overnight with compound
# * = called active by the depositor; ? = inconclusive; [ ] = remark or other dose. % is scaled to controls: 0 for no effect and ±100 for the full control effect; potency is read from the fitted curve at half-maximal effect. The list is partial; count on the stated rates, not on these rows.
SMILES,2A firefly,2A Renilla
CSc1ccccc1NC(=O)c1ccccc1C(F)(F)F,-5.5%,24.3%
O=C(Nc1cc(F)ccc1F)c1cc(-c2ccco2)nc2ccccc12,-10.6%,-14.1%
O=C(Cn1nc(-c2ccccc2)c2c(c1=O)CCCC2)Nc1ccc(F)c(Cl)c1,-16.0%,-7.2%
O=C(NCc1noc2ccccc12)Nc1ccc(F)cc1F,51.5%[activator],67.7%[activator]
COc1cc(NC(=O)c2ccccc2)ccc1NC(=O)c1cc2ccccc2o1,-2.4%,-10.4%
CCCCn1c(Cn2ccnc2C)nc2cc(NC(=O)c3ccccc3C)ccc21,24.3%,44.4%[activator]
CCC1CCc2c(sc3ncn4nc(Cn5nc(C(F)F)cc5C)nc4c23)C1 (stereo not given),-9.6%,-17.3%
COCCNC(=O)c1nc(-c2ccc3cc[nH]c3c2)no1,171.1%[activator],0.5%
COC(=O)[C@H](C)N(Cc1cn(Cc2ccccc2)nn1)S(=O)(=O)c1ccccc1Br,17.7%,0.0%
COc1cccc(C2C(C(=O)Nc3ccccc3OC)=C(C)Nc3nc(-c4ccco4)nn32)c1 (stereo not given),-16.4%,31.7%[activator]
CCCC1CCC(=NNC(=S)NCc2ccccc2)CC1 (stereo not given),17.4%,27.1%
Cc1cccc2sc(N(Cc3cccnc3)C(=O)Cc3ccccc3)nc12,-34.0%,67.4%[activator]
CCC(C)NC(=O)COc1ccc2c(C)cc(=O)oc2c1 (stereo not given),15.7%,-9.1%
CC(Sc1ncnc2nc[nH]c12)C(=O)NCCc1c[nH]c2ccccc12 (stereo not given),-6.3%,-8.3%
Cc1oc(-c2cccs2)nc1CC(=O)N1CCC(C(=O)NCc2ccccc2)CC1,6.5%,8.3%
CCCC(=O)Nc1cccc(-c2cn3cccnc3n2)c1,45.0%[activator],-12.9%
CCOc1ccc(Br)cc1C1C(C(=O)OC)=C(C)NC2=C1C(=O)c1ccccc12 (stereo not given),-19.1%,-2.2%
CC(C)c1cnc2c(c1SC1CCCC1)c(=O)n(C)c(=O)n2C,22.6%,11.0%
CCc1ccccc1NC(=O)CSc1nnc([C@@H](N)CC(C)C)o1,4.6%,-6.5%
COCc1nnc(NC(=O)c2cccc(Cl)c2)s1,67.0%[activator],-4.9%
C=CCNc1nc(C(=O)OC(C)C(=O)c2ccc(C)cc2)cs1 (stereo not given),180.5%[activator],10.1%
CCCCCCNC(=O)c1c[nH]c2ccc(S(=O)(=O)N(C)c3ccc(C(C)C)cc3)cc2c1=O,-12.5%,-6.6%
COc1ccc(C(=O)Nc2nc(-c3nnn(-c4ccccc4Br)c3C)ns2)cc1,14.1µM*,14.1µM*
O=Cc1ccc(Sc2ccccc2)o1,15.1%,-3.7%
O=Cc1c(-c2ccccc2)c(C=O)n2ccccc12,8.0%,5.2%

# Three compounds out of the list, sorted by heavy-atom count, lowest first.
SMILES,2A firefly,2A Renilla
O=C(NCc1noc2ccccc12)Nc1ccc(F)cc1F,51.5%[activator],67.7%[activator]
Cc1oc(-c2cccs2)nc1CC(=O)N1CCC(C(=O)NCc2ccccc2)CC1,6.5%,8.3%
COc1cccc(C2C(C(=O)Nc3ccccc3OC)=C(C)Nc3nc(-c4ccco4)nn32)c1 (stereo not given),-16.4%,31.7%[activator]

# (continued)
SMILES,2A firefly,2A Renilla
O=S(=O)(c1ccc(Cl)cc1)c1nc(-c2cccc(Br)c2)oc1NCc1ccccc1,-10.2%,-6.8%
CC(NC(=O)c1nn(C)c2c1CSc1ccccc1-2)c1ccccc1 (stereo not given),83.3%[activator],65.7%[activator]
CC(C)CN(c1ccccc1)S(=O)(=O)c1nnc(NC(=O)c2ccco2)s1,0.5%,63.2%[activator]
CCOC(=O)c1ccc(N2CCN(c3cc(C)ccc3C)CC2)c(NC(=O)Nc2ccc(CC)cc2)c1,-13.1%,-7.7%
CC(=O)Nc1ccc(NC(=O)COc2cccc(F)c2)c(C(F)(F)F)c1,38.6%[activator],11.8%
Cc1cc(C)c(Nc2ncnc3c2cnn3C)c(C)c1,3.4%,-3.5%
COc1cc(NC(=O)c2nc3ccccc3n(C)c2=O)cc(OC)c1OC,-5.2%,-11.4%
O=C(Cn1c(=O)cc(C(=O)N2CCCC2)c2ccccc21)Nc1ccccc1F,1.4%,2.7%
O=C(Nc1ccc(Br)cn1)C12CC3CC(CC(C3)C1)C2,37.3%[activator],-19.9%
COc1ccc2cc(C(=O)O)nnc2c1,93.7%[activator],0.0%
Nc1cccc(OC2CCCC2)c1,0.0%,7.4%
CN(C)CCCN(C(=O)COc1ccccc1)c1nc2ccc(Br)cc2s1,19.1%,-0.4%
COc1ccc(NC(=O)CCS(=O)(=O)c2ccc3nc(C)sc3c2)cc1Cl,-28.6%,2.6%
COc1ccc(NC(=O)CSc2nc(-c3ccc(OC)c(OC)c3)[nH]c2-c2ccc(C)cc2)cc1,-8.8%,0.0%
Cc1ccc2nc(-c3cccnc3)cc(C(=O)NC3CC3)c2c1,3.4%,0.5%
Cn1c(=O)c2c(nc(N3CCOCC3)n2Cc2ccccc2)n(C)c1=O,-13.6%,-4.2%
CC(=O)c1ccc(OC(C)C)c(CN2CCCCC2)c1,-6.7%,-17.4%
CCc1ccc(-c2cc(C(F)(F)F)n3ncc(C(=O)NCc4cn(CC)nc4C)c3n2)s1,6.9%,-1.0%
CN1CCC(N(C)C(=O)c2ccc(C(F)(F)F)cc2)CC1,4.4%,-2.2%
Cc1ccc(CNc2nc(-c3ccco3)nn2S(C)(=O)=O)cc1,83.4%[activator],-2.7%
COc1ccc(OC)c(S(=O)(=O)N2CCC[C@H]2C(=O)Nc2cc(C)on2)c1,0.2%,19.1%
O=C(COCc1cc(-c2ccc3c(c2)OCO3)on1)NCc1ccccc1Cl,-18.5%,0.6%
CC1C(=O)N2CCCc3cc(S(=O)(=O)N4CCC(C(N)=O)CC4)cc1c32 (stereo not given),-16.1%,13.8%
CCN(C(=O)C(C)S(=O)(=O)Cc1c(Cl)cccc1Cl)c1ccccc1 (stereo not given),-7.3%,14.1%
CCN(CC)CCOc1ccc2c(c1)C(=O)c1cc(OCCN(CC)CC)ccc1-2,?,8.6%

# Further structures follow:
SMILES,2A firefly,2A Renilla
CC(C(=O)NCc1cccs1)N1CCC(O)CC1 (stereo not given),-2.8%,-2.7%
COc1cccc(Cc2nc3ccccc3nc2SCC(=O)N2CCCc3ccccc32)c1,-6.3%,-6.0%
COCCNS(=O)(=O)c1cc(-c2nn3c(C)nnc3c3ccccc23)ccc1C,89.9%[activator],364.7%[activator]
C1=CCC(CN2CCN(Cc3ccco3)CC2)CC1 (stereo not given),8.2%,-6.0%
CN(C(=O)c1cc(=O)[nH]c2ccccc12)c1ccccc1,2.9%,-9.8%
COc1ccc(NC(=O)c2ccc(-c3nc(CSc4ccccc4)c(C)o3)cc2)c(OC)c1,-14.0%,-15.5%
COc1ccc(Br)c(C(=O)Nn2c(-c3cccc(C)c3)nc3ccccc3c2=O)c1,9.3%,8.4%
CC(C)c1ccc(C(NC(=O)c2nn(C)c(=O)c3ccccc23)C(C)C)cc1 (stereo not given),-5.6%,-2.8%
CCOC(=O)N/N=C1\c2ccccc2C2(O)NC(=O)NC12O (stereo not given),9.8%,-17.1%
FC(F)(F)c1cc(-c2ccccc2)nc(SCc2ccccn2)n1,23.2%,7.3%
CCc1cccc(CC)c1NC(=O)c1cc2cccc(OC)c2oc1=O,3.3%,4.6%
Cc1nn(-c2ncnc3nc[nH]c23)c2c1C(c1ccc(Cl)cc1Cl)SCC(=O)N2 (stereo not given),9.2%,-0.2%
CC(C)c1ccc(CCNC(=O)c2cccc3cccnc23)cc1,14.7%,-4.4%[1.06 µM]
COc1ccc(-c2coc3cc(OCCN4CCCCC4)ccc3c2=O)cc1,195.9%[activator],6.1%
Cc1ccc2[nH]c(C)c(CC(=O)NCC(C)(C)CN(C)C)c2c1,-4.5%,-15.6%
CCOC(=O)c1[nH]c(C)c(C(=O)NCc2ccc(F)cc2)c1C,-16.7%,-5.2%
Cc1ccc(C(=O)Nc2cccc(-c3nc4ccccc4o3)c2)cc1[N+](=O)[O-],24.9%,2.1%
c1ccc(C2=Nn3c(nnc3-c3ccccn3)SC2)cc1,9.8%,0.3%
Cc1ccc(S(=O)(=O)Nc2cc3c(cc2C)n(C)c(=O)c(=O)n3C)c(C)c1,-15.4%,-29.8%
O=C(c1cc(C2CC2)nc2ccccc12)N1CCCC(C(F)(F)F)C1 (stereo not given),-13.0%,24.1%
COc1ccc(CN2C(=O)N(c3ccc(F)cc3)C(=O)C2CC(=O)Nc2ccccc2)cc1 (stereo not given),-19.8%,2.4%
Cc1nc(-c2ccccc2)sc1C(=O)N1CCCC(C(=O)O)C1 (stereo not given),51.7%[activator],-4.5%
O=C(Nc1cc(-c2nc3cc(Cl)ccc3o2)ccc1Cl)c1cc([N+](=O)[O-])ccc1N1CCOCC1,52.8%[activator],-5.1%
COc1ccc(NC(=O)NCc2nc(-c3cccc(Cl)c3)oc2C)cc1OC,14.7%,5.0%
C/C(=N\NC(N)=S)c1ccc([N+](=O)[O-])cc1,-0.2%,-9.6%

# (list continues)
SMILES,2A firefly,2A Renilla
CCOc1ccc(NC(=O)CSc2nc3nc(C)c(Cc4ccccc4)c(C)n3n2)cc1,-7.7%,-12.7%
CCOC(=O)N(C)[C@H]1C[C@H]2c3[nH]c4c(-c5ccc6c(c5)OCO6)cccc4c3CCN2C(=O)[C@H]1[C@H](C)O,-20.5%,?
O=c1nc(-c2ccccc2Cl)c2cc(Br)ccc2[nH]1,-3.4%,-1.4%
CC(NC(=O)c1ccc2cc[nH]c2c1)c1ccccc1Br (stereo not given),10.2%,14.4%
COc1cc(NC(=O)CSc2nc(-c3ccc(C(C)C)cc3)no2)cc(OC)c1,?,3.7%
Cc1ccc(Cn2ccnc2SCC(=O)Nc2nnc(C)s2)cc1,-14.8%,-16.9%
CN(CC(=O)Nc1c(Cl)cccc1C(F)(F)F)C1CCc2ccccc21 (stereo not given),4.1%,11.2%
CCOc1ccc(CNCCCSc2nnnn2C)cc1OC,-6.9%,-11.6%
CC(OC(=O)c1ccoc1)C(=O)C12CC3CC(CC(C3)C1)C2 (stereo not given),15.2%,-1.2%
CCNCc1ccc(OCc2cccs2)c(OC)c1,51.2%[activator],-8.5%
Cc1cccc(C)c1-n1ncc(C(=O)N2CCN(c3ncccn3)CC2)c1C1CCN(C(=O)OC(C)(C)C)CC1,-19.3%,-0.1%
CCOC(=O)C(N)Cc1ccccc1 (stereo not given),22.5%,23.9%[1.06 µM]
COc1ccc(C2CC(=O)N(CC(=O)Nc3cccc(C)c3C)c3ccccc3S2)cc1OC (stereo not given),7.1%,13.6%
Cc1nc(CCNC(=O)c2c[nH]c3ccccc23)cs1,0.0%,-7.2%[1.06 µM]
CCOC(=O)c1ccc(NC(=O)CSc2nccn2-c2ccc(OCC)cc2)cc1,10.6%,36.5%[activator]
C=C(C)CN1CCN(c2nc3c(c(=O)[nH]c(=O)n3C)n2Cc2ccc(Br)cc2)CC1,-4.2%,-11.1%
O=C1c2[nH]nc(-c3ccccc3O)c2C(c2cccc(Br)c2)N1Cc1ccncc1 (stereo not given),2.3%,254.4%[activator]
O=C(O)c1ccc(Nc2nc3ccccc3n3cnnc23)cc1,56.8%,3.7%
COc1ccccc1CNC(=O)Nc1ccc2c(c1)N(C)C(=O)c1ccccc1S2,-19.8%,16.3%
CC1CCN(S(=O)(=O)c2ccc3c(c2)c(=O)c(C(=O)NC(C)c2ccccc2)cn3C)CC1 (stereo not given),-6.1%,-7.9%
CCN(Cc1ccco1)C(=O)c1cc2cc(F)ccc2[nH]1,80.9%[activator],-10.7%
COC(=O)c1c(N)n(-c2ccc(OC)c(OC)c2)c2nc3ccccc3nc12,37.4%[activator],37.7%
Cc1nc(C23CC4CC(CC(C4)C2)C3)cs1,15.6%,10.8%
Cc1noc(/C=C/c2ccccc2F)c1S(=O)(=O)N1CCC(C(=O)N2CCOc3ccccc32)CC1,-17.9%,-1.4%
CNC(=O)NC(=O)C(C)SC(C)c1ccc(F)cc1 (stereo not given),4.9%,-7.9%

# Next section, starting with the last five of the part before.
SMILES,2A firefly,2A Renilla
CCN(Cc1ccco1)C(=O)c1cc2cc(F)ccc2[nH]1,80.9%[activator],-10.7%
COC(=O)c1c(N)n(-c2ccc(OC)c(OC)c2)c2nc3ccccc3nc12,37.4%[activator],37.7%
Cc1nc(C23CC4CC(CC(C4)C2)C3)cs1,15.6%,10.8%
Cc1noc(/C=C/c2ccccc2F)c1S(=O)(=O)N1CCC(C(=O)N2CCOc3ccccc32)CC1,-17.9%,-1.4%
CNC(=O)NC(=O)C(C)SC(C)c1ccc(F)cc1 (stereo not given),4.9%,-7.9%
CCC(=O)Nc1cc(-c2cccc(C)c2)nn1-c1ccccc1,127.1%[activator],36.9%[activator]
COC(=O)c1ccc(S(=O)(=O)N(Cc2ccc(C(=O)NC3CC3)cc2)C2CC2)cc1,11.8%,-2.5%
Cc1ccc(C)c(NC(=O)CCc2nc(-c3ccc(C(C)(C)C)cc3)no2)c1,?,?
Cc1ccc(NC(=O)C(C)Sc2nc(-c3ccccc3)c(C#N)c(=O)[nH]2)c(C)c1 (stereo not given),-4.7%,-8.9%
CCCC1CCCCN1 (stereo not given),0.5%[11.5 µM],-8.6%
CC(=O)c1ccc(NC(=O)C23CC4CC(CC(C4)C2)C3)cc1,0.0%,6.1%
Cc1ccc(S(=O)(=O)NCC(c2ccc(N(C)C)cc2)N2CCCC2)cc1 (stereo not given),-17.3%,-2.7%
Cc1cccc(C)c1-n1ncc(C(=O)Nc2ccc3c(c2)OCO3)c1C1CCN(C(=O)OC(C)(C)C)CC1,13.4%,-7.5%
CCC(C)S(=O)(=O)c1oc(-c2cccs2)nc1S(=O)(=O)c1ccccc1 (stereo not given),31.6µM*,-4.6%
COc1ccc(CCNC(=O)c2csc(NC3CC3)n2)cc1OC,0.0%,11.0%
COc1ccc(-n2nnc(-c3nc(-c4ccccc4C)no3)c2N)cc1Cl,-12.9%,72.7%[activator]

# Screens deposited in PubChem BioAssay by National Center for Advancing Translational Sciences (NCATS).
